Sa ugtP lethal: kills S. aureus RN4220 lacking UgtP; S. aureus RN4220 ugtP deletion, OD600 growth, 16 h; some inactives read as strong as hits; growth inhibition, % (no concentration beside the values); AID 1259309; actives 0.54% (n = 330,000);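 active means z-score under -3 and OD600 up to 0.15 on both plates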;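 further: plate controls were untreated wells for no effect and antibiotic for full effect; wells of about 80 µL received 100 nL stock; the first replicate is given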
RN4220 kill: S. aureus RN4220 growth inhibition | actives 0.33% (n = 330,000) | OD600, 16 h | AID 1259311 | inhibition, % (no concentration beside the values);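 active means z-score of -3 or lower and OD600 up to 0.18 on both plates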;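 further: plate controls were untreated cells for no effect and reference antibiotic for full effect; stock transfer was 100 nL into about 80 µL; one replicate is shown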
Mtb hypoxia inh: Mtb hypoxia fluorescent reporter inhibition; M. tuberculosis hypoxia-regulated fluorescent reporter, fluorescence; AID 1159583; fluorescence inhibition, % (no concentration beside the values); actives 0.1% (n = 300,000);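 active means 35 to 45% if threefold the growth effect, above 45% if 1.5-fold the growth effect; inactive means the rest, general growth blockers included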;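 further: wells of about 50 µL received 100 nL stock; 0% = vehicle wells and 100% = reference inhibitor wells; whole bacteria with a GFP reporter of the hypoxia response; strong numbers were not always called active; many hits fall short of the cut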
Bead autofluor: counter-screen for toxin protease inhibitors: compound fluorescence; compound autofluorescence counterscreen, microsphere flow cytometry; stronger effect = higher value; fluorescence intensity (no concentration beside the values); actives 3.1% (n = 360,000);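 active means at least 3 SD above the mean of all compounds, about 16000 in these data; inconclusive means too few beads counted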;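 further: 100 nL of 1 mM stock went into each well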
BJeLR lethal: kills HRASV12-expressing BJeLR cells. AID 1554. inhibition, % (test concentration not listed). actives 0.17% (n = 300,000). BJeLR (HRASV12) viability, CellTiter-Glo ATP luminescence, 48 h; reference of the scale not given here;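 active means replicate mean above 50%; inconclusive means above 50% but judged a plate artefact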;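 further: 50 nL library stock added to about 25 µL; numbers are from one replicate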
PrP 5UTR inh: inhibition of PrP 5' UTR reporter expression | cell-based PrP 5' UTR mRNA reporter, plate reader | inhibition, % (no concentration beside the values) | actives 0.35% (n = 340,000) | AID 488862;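 active means every replicate at 50% or more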;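 further: 0 = median of the neutral control wells; tested in H4 reporter cells; numbers are from one replicate; inactives centre near -14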
Mtb hypoxia inh growth: also measured in Mtb hypoxia inh; calls as there; growth inhibition, %; measured here: M. tuberculosis growth (absorbance);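 0% = vehicle and 100% = reference antibiotic; read after six days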
An asterisk follows results filed as active; ? = inconclusive; nt = no result given.

SMILES	Sa ugtP lethal	RN4220 kill	Mtb hypoxia inh	Mtb hypoxia inh growth	Bead autofluor	BJeLR lethal	PrP 5UTR inh
COc1ccc(NC(=O)COC(=O)c2ccc(-n3cnnn3)cc2)cc1Cl	4.2	2.5	0.0	1.0	4924	1.9	-15.3
Cc1nnc(SCc2nc3sc4c(c3c(=O)[nH]2)CCCC4)n(N)c1=O	2.5	2.9	9.3	5.7	nt	-4.8	nt
CCC1(CC)C(=O)NC(=Nc2cccc(C(F)(F)F)c2)NC1=O	3.3	2.5	-13.9	2.0	9632	-20.0	-17.1
C[N+]1(CCNC(=O)/C=N/O)CCCCC1	nt	nt	nt	nt	2795	1.0	-27.6
COCCNC(=O)c1cc(-c2ccccn2)nc2ccc(S(=O)(=O)N3CCC(C)CC3)cc12	13.8	6.4	12.5	-0.6	4202	7.0	-19.5
COC(=O)CC(NC(=O)c1ccco1)c1ccc(C(C)C)cc1 (stereo unspecified)	-0.7	3.2	nt	nt	4155	-3.4	-5.5
C=CCNC(=S)N1CCOCC1	4.1	5.6	13.0	-0.3	3116	-0.8	-12.8
COc1ccc(-c2nc(CN3CCN(c4ncnc5ccccc45)CC3)c(C)o2)c(OC)c1	7.2	1.9	5.5	6.9	2154	3.0	10.2
Cc1cccc(N2CCN(S(=O)(=O)c3cccs3)CC2)c1C	7.5	1.9	6.6	-2.3	3561	2.4	-34.5
CC(C)(C)Nc1nc(Cl)nc(NCCN2CCOCC2)n1	16.5	3.4	4.8	-0.7	5573	-5.9	-16.0
C=CCN=C1SCC(=O)N1S(=O)(=O)c1ccccc1	-2.2	6.8	11.9	9.0	10399	7.7	-18.4
COc1ccccc1OCCNC(=O)c1ccc(NC(=O)CC2SC(N3CCCC3)=NC2=O)cc1 (stereo unspecified)	1.1	1.0	6.5	-0.8	3815	nt	-14.9
Cc1ccsc1/C=N/Nc1nc2ccccc2s1	nt	nt	nt	nt	1970	2.3	-148.9
Cc1nn(-c2ccccc2)c(Cl)c1C=NO	-0.5	7.4	10.4	4.6	nt	nt	nt
C/C(=N\NC(=O)C1CC1)c1ccc(OC(F)F)cc1	nt	nt	nt	nt	3494	-3.6	-17.7
Cc1ccc(CNC(=O)CS(=O)Cc2nc(-c3ccccc3C)oc2C)cc1 (stereo unspecified)	-7.4	-14.0	-1.6	-5.6	6065	0.3	-5.5
COc1ccc(CCNC(=O)COc2ccc3c(c2)OCO3)cc1	9.0	10.3	1.8	4.4	nt	nt	-22.6
CCCN(Cc1nnc(-c2ccccc2Cl)o1)C(=O)c1cc([N+](=O)[O-])cc([N+](=O)[O-])c1	14.3	-2.8	nt	nt	3414	0.0	-18.4
CC1CN(CC(O)COC2CCC(C(C)(C)C)CC2)CC(C)O1 (stereo unspecified)	3.7	4.1	16.0	13.3	4908	1.6	-0.4
Cc1ccc(CNC(=O)CCS(=O)(=O)c2cc3c(cc2Cl)NC(=O)CO3)o1	5.4	-1.3	nt	nt	5636	3.3	-19.7
COc1ccccc1-c1cc(C(=O)N/N=C/c2ccoc2)c2ccccc2n1	nt	nt	nt	nt	5921	-5.8	1.5
Cc1ccccc1OCC(O)CN1CCCCC1 (stereo unspecified)	8.8	8.4	12.3	-3.0	4851	-5.8	-14.1
CCn1c(SCC(=O)NNC(=O)c2ccc(C)cc2)nnc1C1CC1	3.8	-0.2	-3.2	1.6	5329	-4.5	0.9
CC(=O)c1cnc(Nc2nc(C)c3cc(C)c(C)cc3n2)nc1C	-6.8	1.0	-7.2	2.7	3989	-1.4	-1.0
CCN(CC)CC(O)c1cccn1-c1ccc(CNC(=O)NC(C)C)cc1 (stereo unspecified)	11.6	1.7	4.7	12.9	2345	-12.5	-18.9
Cc1ccc(CNC(=O)c2ccc(N3CCC4(CC3)CC(c3cccc(Br)c3)=NO4)c(N)c2)cc1	10.2	0.4	3.5	4.5	3908	-3.5	-18.6
Cc1ccc(C2NC(=S)NC(c3ccc(C)cc3)C23C(=O)NC(=O)NC3=O)cc1 (stereo unspecified)	0.1	-0.4	9.6	4.4	7913	-3.7	-34.4
O=C(NN=Cc1ccc(Br)o1)c1cc([N+](=O)[O-])cc([N+](=O)[O-])c1	1.4	-1.9	12.5	23.8	nt	nt	nt
O=C(COc1ccccc1)NCC(=O)Nc1ccncc1	9.0	4.4	5.6	4.4	3965	2.4	-21.0
O=C(NC1CCCCC1)N1CCN(C(c2ccccc2)c2ccccc2)CC1	12.0	-2.9	17.0	8.4	5938	-9.0	2.1
Cc1ccc(C(=O)OCC(=O)Nc2cccc(S(=O)(=O)N3CCOCC3)c2)o1	0.8	1.5	14.7	43.8	8744	nt	-12.5
COc1ccc(S(=O)(=O)N2CCN(CC(=O)NCC3(N4CCOCC4)CCCCC3)CC2)cc1	1.9	5.7	6.7	-2.1	nt	nt	nt
Cc1ccc(C(=O)NCC(=O)N(C)CC(=O)Nc2c(Cl)cccc2Cl)s1	9.7	4.2	5.3	-3.9	?	-5.8	-9.0
O=c1[nH]oc2cc(Cl)ccc12	4.0	2.8	-5.5	5.0	6163	8.7	-26.0
COc1cccc(-c2csc(NC(=O)Nc3ccccc3)n2)c1	-15.2	-16.0	2.3	4.2	3838	-1.2	-11.8
CS(=O)(=O)N1CCN(C(=O)CCC2CCCC2)CC1	0.9	-8.3	nt	nt	2830	3.3	-12.8
CC(=O)Nc1ccc(C(=O)NNC(=O)c2ccc(Cl)cc2)cc1	-0.8	2.4	-5.0	-3.5	4023	3.6	-18.6
COc1ccc(C=NNC(=O)CNC(=O)/C=C/c2ccco2)cc1OC	0.7	4.1	-10.3	-6.3	nt	nt	nt
CC1(C)C(=O)Nc2ccccc2N1C(=O)COc1ccccc1C#N	0.2	3.1	6.6	7.0	4011	nt	-19.4
COc1ccc(C)cc1NC(=O)C(=O)NCc1ccncc1	0.7	0.7	8.4	10.4	10896	-7.7	-0.1
COc1ccc(Nc2nc(Cl)nc(NCc3ccco3)n2)c(OC)c1	12.8	4.6	nt	nt	3556	-6.0	-2.1
CC(C)CC(=O)C1=C(O)C(=O)N(Cc2ccccc2)C1c1ccccc1 (stereo unspecified)	3.7	16.6	13.2	6.5	3666	4.8	-80.1
Cc1cc2oc(C(=O)NCc3ccc4c(c3)OCO4)c(C)c2cc1C	10.2	-1.3	nt	nt	4940	0.9	-30.6
Cc1cc(C)cc(NC(=S)N(Cc2ccc(Br)cc2)Cc2ccc(C(=O)O)cc2)c1	25.1	24.7	4.3	3.7	3279	-3.4	-18.7
CCCN1CCN(CCCNC(=S)Nc2ccc(F)cc2)CC1	1.2	-0.1	2.1	6.4	4244	6.3	-12.1
COc1ccc(CCNC(=O)C(C)Sc2ccccc2)cc1OC (stereo unspecified)	2.2	9.3	9.4	1.2	2507	9.7	-15.8
O=C(NCc1cc(F)cc(C(F)(F)F)c1)C1CCC(=O)N(C2CCCC2)C1 (stereo unspecified)	19.4	4.4	8.3	0.6	5327	10.6	-20.3
CCOC(=O)c1cc(C)n(CCc2ccccc2)c1C	11.0	5.3	nt	nt	3610	-0.4	-26.8
O=C(NN=Cc1cccnc1)c1cc(-c2ccccc2OCc2ccccc2)n[nH]1	-16.1	19.3	9.2	1.2	nt	nt	nt
CC1=NOC(=O)/C1=C/c1ccc2c(c1)OCO2	1.1	2.3	9.8	10.3	4295	0.7	-17.3
Cc1cc(NC(=O)COc2coc(CN3CCN(c4ccccc4F)CC3)cc2=O)no1	5.9	3.5	5.0	2.9	?	-5.7	-9.2
COc1ccc(CCNC(=O)COc2ncnc3cc([N+](=O)[O-])ccc23)cc1	1.6	-5.4	1.5	-1.9	2213	-4.8	-3.9
Nc1ccc(C(=O)N/N=C/c2ccccc2)cc1	nt	nt	nt	nt	3795	-5.0	-66.2
COc1ccc(NC(=O)CCCSc2ccccc2)cc1	-14.8	-2.5	-0.3	-6.8	4450	-2.4	-15.8
Cc1ccccc1OCC(=O)Nc1ccc(Cc2ccncc2)cc1	-2.7	-3.9	-9.9	-7.8	2511	4.8	-19.3
CC(C)COc1ccc(C(=NO)c2ccccc2)cc1	86.3*	22.1	3.2	2.7	nt	nt	nt
COc1cccc(C=Nn2c(N)c(S(=O)(=O)c3cccs3)c3nc4ccccc4nc32)c1OC	-21.4	4.8	4.9	-1.3	nt	nt	nt
Cc1cccc(-c2cnn(-c3cccc([N+](=O)[O-])c3)c2N)c1	-8.8	6.9	-0.7	3.0	?	-2.4	-56.4
N#Cc1ccc(CSc2nnc(COc3ccccc3)n2-c2ccccc2)cc1	-0.8	4.4	1.7	13.5	24330*	1.7	-8.0
O=C(CCC1CCCCC1)NCCS(=O)(=O)N1CCN(c2ccccc2F)CC1	-1.4	2.3	0.6	15.2	4766	1.5	-4.6

4 entries from above, ordered by number of heavy atoms, falling.
SMILES	Sa ugtP lethal	RN4220 kill	Mtb hypoxia inh	Mtb hypoxia inh growth	Bead autofluor	BJeLR lethal	PrP 5UTR inh
N#Cc1ccc(CSc2nnc(COc3ccccc3)n2-c2ccccc2)cc1	-0.8	4.4	1.7	13.5	24330*	1.7	-8.0
O=C(NCc1cc(F)cc(C(F)(F)F)c1)C1CCC(=O)N(C2CCCC2)C1 (stereo unspecified)	19.4	4.4	8.3	0.6	5327	10.6	-20.3
Cc1ccccc1OCC(=O)Nc1ccc(Cc2ccncc2)cc1	-2.7	-3.9	-9.9	-7.8	2511	4.8	-19.3
Cc1cccc(-c2cnn(-c3cccc([N+](=O)[O-])c3)c2N)c1	-8.8	6.9	-0.7	3.0	?	-2.4	-56.4

Next section.
SMILES	Sa ugtP lethal	RN4220 kill	Mtb hypoxia inh	Mtb hypoxia inh growth	Bead autofluor	BJeLR lethal	PrP 5UTR inh
Cn1c(=O)c2c(nc(NCCCO)n2Cc2cccc(Br)c2)n(C)c1=O	-2.6	-0.6	3.0	2.1	18885*	0.0	-10.0
Cc1ccc(Nc2c(-c3ccccc3)nc3cnccn23)cc1	0.6	3.0	-3.7	8.3	3708	6.9	-18.3
O=C(COC(=O)CN1CCSC1=O)Nc1ccc(F)cc1Cl	13.3	1.0	2.8	9.5	6329	nt	6.0
CC1(C)Cc2c(sc3nc(SCC(=O)O)[nH]c(=O)c23)CO1	6.5	3.1	5.8	-2.2	11545	4.9	-29.9
Cc1ccc(C)c(S(=O)(=O)NCCOc2nc(NC(C)C)nc(NC(C)C)n2)c1	-0.3	-0.1	8.7	11.2	9734	-1.1	-3.9
COc1cccc2cc(C(=O)N3CCN(c4ccccn4)CC3)c(=O)oc12	4.8	-1.8	nt	nt	4647	-10.6	-5.2
Cc1ccc(SCC(=O)N(C)C2CCS(=O)(=O)C2)c(C)c1 (stereo unspecified)	-2.5	2.4	-6.3	-0.8	2934	nt	-12.7
COc1ccc(-c2nnc3n2CCCCC3)cc1OC	7.3	2.7	2.2	-0.3	4667	-5.6	-13.6
CC(CCc1ccccc1)=NNC(=S)NCCc1ccccc1	20.7	6.1	1.6	0.6	nt	nt	nt
COc1ccc(N2CCN(S(=O)(=O)c3ccc(OC)c(C(=O)N4CCOCC4)c3)CC2)cc1	7.3	-0.8	-3.1	0.2	3847	-5.2	-13.5
Cc1ccc(Cl)cc1C1=CC(=O)CC(c2ccc(F)cc2)C1 (stereo unspecified)	0.4	-7.2	-0.3	4.5	nt	nt	nt
Cc1ccc(S(=O)(=O)NCc2nc3ccccc3c(=O)n2N)cc1	-0.6	5.6	-0.5	4.2	22978*	5.7	4.7
CCCc1ccc(OCc2ccc(C(=O)NN=Cc3cccnc3)o2)cc1	9.7	6.2	1.2	-7.3	nt	nt	nt
Cc1cccc(C(=O)N2CCCC(N3CCN(c4cccc(Cl)c4)CC3)C2)n1 (stereo unspecified)	6.6	1.7	11.5	1.5	4325	3.9	-21.9

Single records, from the list above. Screens in order: Sa ugtP lethal	RN4220 kill	Mtb hypoxia inh	Mtb hypoxia inh growth	Bead autofluor	BJeLR lethal	PrP 5UTR inh
Cc1cccc(-c2cnn(-c3cccc([N+](=O)[O-])c3)c2N)c1 in the list: -8.8	6.9	-0.7	3.0	?	-2.4	-56.4
COc1ccc(CCNC(=O)C(C)Sc2ccccc2)cc1OC (stereo unspecified) in the list: 2.2	9.3	9.4	1.2	2507	9.7	-15.8
CCCc1ccc(OCc2ccc(C(=O)NN=Cc3cccnc3)o2)cc1 in the list: 9.7	6.2	1.2	-7.3	nt	nt	nt
N#Cc1ccc(CSc2nnc(COc3ccccc3)n2-c2ccccc2)cc1 in the list: -0.8	4.4	1.7	13.5	24330*	1.7	-8.0

Source: PubChem (several laboratories)
